Source: PubChem (National Center for Advancing Translational Sciences (NCATS))
Vaccinia mCherry: qHTS for Stage-Specific Inhibitors of Vaccinia Orthopoxvirus: mCherry Reporter Primary qHTS; actives 0.63% (n = 310,000); Potency, µM (top dose mostly 36.5 µM), inactives show top-dose activity change, negative = inhibition, usual class: inhibitors; Vaccinia virus mCherry reporter infection, fluorescence; about a quarter of the inactives have no number; AID 720579, 2013; active = well fitted inhibition curve with a large enough effect; inconclusive = small, poorly fitted or top-dose-only effect; inactive = no such curve, though single readings can be large or run the other way; tested in A549 cells; also: nearly all actives have a fitted effect of over 35% in size; inactives centre near -10
Vaccinia Venus: qHTS for Stage-Specific Inhibitors of Vaccinia Orthopoxvirus: Venus Reporter Primary qHTS. Potency, µM (highest dose often 36.5 µM), without a hit: top-dose activity change, negative = inhibition, most hits filed as inhibitors. AID 720580, 2013. Vaccinia virus Venus reporter expression, fluorescence. actives 0.46% (n = 330,000); active means well fitted inhibition curve with a large enough effect; inconclusive means small, poorly fitted or top-dose-only effect; inactive means no such curve, though single readings can be large or run the other way; tested in A549 cells; also: nearly all actives have a fitted effect of over 30% in size; inactives centre near -10
* = called active by the depositor; i = inactive; ? = inconclusive; nt = no result given; [ ] = another dose, or the depositor's remark. % is scaled to controls: 0 for no effect and ±100 for the full control effect; potency is read from the fitted curve at half-maximal effect. Random draw from the library. About 0.87% of those tested had a hit in this group.

The opening two entries, to show the layout:
Under each structure: Vaccinia mCherry	Vaccinia Venus
> COC(=O)c1ccc(C(=O)OC)c(NC(=O)COC(=O)CC2CC3CCC2C3)c1 (centres undefined)
  -4%	5%
> CCOc1ccc2cc(S(=O)(=O)n3ccnc3C)ccc2c1
  nt	0%

This part in full (from the top)
Under each structure: Vaccinia mCherry	Vaccinia Venus
> COC(=O)c1ccc(C(=O)OC)c(NC(=O)COC(=O)CC2CC3CCC2C3)c1 (centres undefined)
  -4%	5%
> CCOc1ccc2cc(S(=O)(=O)n3ccnc3C)ccc2c1
  nt	0%
> O=c1c(O)c(-c2ccc(O)c(O)c2)oc2c(O)c(O)cc(O)c12
  i	-17%
> COc1ccccc1-n1cc(-c2ccc(C)cc2)[nH]c1=S
  ?	-21%
> Cc1cc(Nc2ccc(C(=O)O)cc2)nc(N)n1
  -9%	-8%
> COc1cccc2cc(C(=O)NCc3ccco3)c(=O)oc12
  -18%	-12%
> O=C1COc2ccc(C(=O)NC3CC3)cc2N1
  -18%	0%
> CCN(CC)S(=O)(=O)c1cccc(C(=O)N2CC(O)CC2C(=O)O)c1 (centres undefined)
  nt	-20%
> COC(=O)c1ccc(NC(=O)Cn2cnc3c(nnn3-c3cccc(OC)c3)c2=O)cc1
  -14%	-10%
> Nc1ccn([C@@H]2O[C@H](CNC(=O)[C@@H](Cc3cn(COCc4ccccc4)cn3)NC=O)[C@@H](O)[C@H]2O)c(=O)n1
  -24%	6%
> Cc1ccc(-c2c(C(=O)c3ccc(Br)cc3)[nH]c(N)c2C(=O)NCc2ccc(Cl)cc2)cc1
  2%	0%
> O=C1OC(C(O)CO)C(O)=C1O (centres undefined)
  -12%	-7%
> C#CCOc1ccc(/C=N/O)cc1Cl
  -11%	-3%
> COCCOc1cc(NCc2ccccc2)c2ncn(C(C)C)c2c1
  -23%	-25%
> CN1CCCC(OC(=O)c2cc(Cl)ccc2Cl)C1 (centres undefined)
  nt	-7%
> CCCCn1nnnc1SCC(=O)NNC(=O)C1CCCCC1
  i	4%
> COC(=O)c1cnc(Nc2nc(C(N)c3ccccc3Cl)cs2)nc1C(F)(F)F (centres undefined)
  -14%	-10%
> CC(=NNC(=O)c1cc(C)oc1C)c1ccc(Br)s1
  -5%	-9%
> CCN1C(=O)[C@H]2[C@H]3CN=C(SCc4ccc(C)cc4)N3[C@@](CC)(C(=O)OC)[C@H]2C1=O
  i	-18%
> O=C(NCc1ccco1)c1ccc(S(=O)(=O)N2CCOCC2)cc1
  -17%	-11%
> Cc1nn(CCOc2cccc(Cl)c2)c(C)c1[N+](=O)[O-]
  i	-13%
> Cc1cccc(CN2CCN(C3CN(Cc4cn(Cc5ccccc5F)nn4)S(=O)(=O)C3)CC2)c1 (centres undefined)
  6%	-5%
> Cc1nc(NC(=O)c2cccc(Cl)c2)sc1C(=O)N1CCCCC1
  i	-12%
> CC(C)c1nn2c(=O)cc(COC(=O)c3ccc(NC(=O)c4ccccc4Cl)cc3)nc2s1
  -17%	-8%
> CC(=O)Nc1cccc(NC(=O)C2CC(=O)N(c3ccc(C)cc3)C2)c1 (centres undefined)
  -11%	-11%
> O=C(Nc1ccc2cn[nH]c2c1)c1c(Cl)cccc1Cl
  -23%	-21%
> CCOC(=O)c1ccc(N2C(=O)c3n[nH]c(-c4cccs4)c3C2c2ccc(C(C)(C)C)cc2)cc1 (centres undefined)
  ?	?
> COc1cccc(NC(=O)CN(C)C(=O)c2sc3cc(Cl)ccc3c2Cl)c1
  -23%	-14%
> CC(CCc1ccccn1)(CCc1ccccn1)C(=O)c1ccccc1
  -7%	-11%
> CC(=O)Nc1ccc(Nc2nc3c(S(=O)(=O)c4ccc(C)c(C)c4)nnn3c3ccccc23)cc1
  -13%	-19%

Exported as labelled records: 4 of the compounds above
CC(C)c1nn2c(=O)cc(COC(=O)c3ccc(NC(=O)c4ccccc4Cl)cc3)nc2s1
  Vaccinia mCherry = -17%	Vaccinia Venus = -8%
Cc1nc(NC(=O)c2cccc(Cl)c2)sc1C(=O)N1CCCCC1
  Vaccinia mCherry = i	Vaccinia Venus = -12%
CCOc1ccc2cc(S(=O)(=O)n3ccnc3C)ccc2c1
  Vaccinia mCherry = nt	Vaccinia Venus = 0%
O=C(NCc1ccco1)c1ccc(S(=O)(=O)N2CCOCC2)cc1
  Vaccinia mCherry = -17%	Vaccinia Venus = -11%

Next part:
Under each structure: Vaccinia mCherry	Vaccinia Venus
> Cc1c(C(=O)O)cccc1N1C(=O)Nc2ccccc2N1O
  i	-6%
> CN(C)S(=O)(=O)c1ccc(/C(O)=C2/C(=O)C(=O)N(CCN3CCCCC3)C2c2cccnc2)cc1 (centres undefined)
  -11%	-3%
> Cc1ccc(SCC(=O)NC(=O)c2ccc(S(=O)(=O)N(C)C)cc2)cc1C
  -12%	-9%
> COc1ccc(OC(=O)c2cnc3n(c2=O)CCS3)cc1
  0%	13%
> CSc1sc(C(=O)N2CCc3ccccc32)cc1S(=O)(=O)C(C)C
  -3%	-12%
> C/C=C/C(=O)Nc1nnc(C2CCCCC2)s1
  -26%	?
> Cn1c(CNc2nc(-c3ccccc3)cs2)nnc1SCC(=O)c1ccccc1
  nt	-31%
> COc1ccc(S(=O)(=O)Nc2c(C)n(C)n(-c3ccccc3)c2=O)cc1C(=O)O
  i	-10%
> O=C(CC(=O)N/N=C\c1ccc([N+](=O)[O-])cc1)NCCc1ccccc1
  -16%	-13%
> Cc1ccc(-c2noc(-c3ccc(N4CCC(C)CC4)c([N+](=O)[O-])c3)n2)cc1
  -9%	0%
> Cc1ccc(C2CC(c3cccc(Br)c3)Nc3nnnn32)cc1 (centres undefined)
  ?	-29%
> CCCC(C(=O)Nc1cc(C)c(Cl)cc1OC)N1Cc2ccccc2C1=O (centres undefined)
  -15%	-11%
> C=CCn1c(O)c(C=Nc2ccc(CN3CCCCC3)cc2)c(=O)[nH]c1=S
  -6%	-11%
> COc1ccc(C(c2nnnn2Cc2cccs2)N2CCC(C(N)=O)CC2)c(OC)c1 (centres undefined)
  -15%	-9%
> COc1ccccc1N1CCN(S(=O)(=O)c2ccc(F)cc2)CC1
  -3%	-13%
> COc1ccccc1NC(=O)C(C)OC(=O)CCCOc1ccccc1 (centres undefined)
  i	-20%
> CN(CC(=O)Nc1cccc(F)c1)CC(=O)Nc1ccccc1[N+](=O)[O-]
  -1%	-14%
> COc1ccc(/C=N/NC(=O)C(=O)N2CCCCCC2)cc1[N+](=O)[O-]
  -25%	-10%
> CCOc1ccc(C(c2c(O)cc(C)n(Cc3ccco3)c2=O)N2CCN(C)CC2)cc1 (centres undefined)
  -10%	-6%
> Cc1cc(-c2nc(C)c(C(=O)NN)s2)no1
  -16%	-27%
> Cc1ccc2cc(CCNS(=O)(=O)c3ccc(Br)cc3)c(=O)[nH]c2c1C
  -7%	-21%
> C=C(NC(C)=O)c1c(F)cccc1F
  i	-6%
> COc1ccc(C(=S)N2CCCC2)cc1C
  -14%	-15%
> O=C(c1ccc(Cl)cc1)N1CCC(C(=O)N2CCCc3ccccc32)CC1
  i	-12%
> COc1ccc2ncc3c(-c4ccc(C)c(C)c4)nn(CC(=O)NC4CCCC4)c3c2c1
  -21%	-19%
> O=C(NCc1cccnc1)c1ccc(S(=O)(=O)N2CCOCC2)cc1
  i	-2%
> CCN1CCN(C(=O)N2CCOCC2)CC1
  i	-16%
> Cc1cccc(NC(=O)c2nc[nH]c2C(=O)NCCCCCCNC(=O)c2[nH]cnc2C(=O)Nc2cccc(C)c2)c1
  -21%	?
> CCc1nc2c(OCc3cccc(Cl)c3)cccn2c1N(C)C(=O)CC(C)C
  i	-7%
> Cc1ccc(S(=O)(=O)N(C)C)cc1[N+](=O)[O-]
  ?	-9%

Further structures.
Molecule,Vaccinia mCherry,Vaccinia Venus
CCC(=O)NC(=S)Nc1cc(C(=O)O)ccc1OC,i,-3%
CCC(C)NC(=O)CC1Oc2ccc(Cl)cc2NC1=O (centres undefined),-11%,-10%
COc1ccc(-c2cc(C(F)(F)F)n3ncc(C(=O)N4CCc5ccccc5C4)c3n2)cc1,-8%,-13%
C/C(=C\c1ccccc1)C(=O)Nc1cc(C)on1,-16%,-6%
NCCCC[C@@H](C(=O)N1CCNCC1)n1cc(CN)nn1,i,-1%
Cc1ccc(NC(=O)c2ncn(CCCN(C)CCc3ccccn3)n2)cc1C,i,-14%
COC(=O)C1N2C(=O)N(C)[C@H](C(=O)OC)[C@H]2SC1(C)C (some centres undefined),i,-7%
Cc1ccc(OC(=O)c2oc3ccc(F)cc3c2C)c(C)c1,0%,-3%

(further entries)
Molecule,Vaccinia mCherry,Vaccinia Venus
CCOC(=O)N1CCc2c(sc3c2c(=O)n(CCc2ccccc2)c(=O)n3CC(=O)Nc2ccc(C)cc2)C1,-17%,-5%
Nc1n[nH]c(C2CC2)c1N=Nc1ccc(Cl)c(Cl)c1,-6%[7.34 µM],0%[7.34 µM]
COc1cc(N)c(Cl)cc1C(=O)OCC(=O)NCC1CCCO1 (centres undefined),-13%,-8%
CC(=O)Nc1ccc(N2CCN(c3ccc(C(F)(F)F)cn3)CC2)nc1,?,-12%
COc1ccc(CN(Cc2ccccc2)C(=O)c2ccc(O)cc2)cc1COc1ccc(NC(C)=O)cc1,i,-14%
COc1ccc2nc(N(Cc3cccnc3)C(=O)COc3ccccc3)sc2c1,-4%,-13%
COC(=O)[C@@]1(Cc2ccc(OC)cc2)[C@H]2c3cc(C(=O)N4CCCC4)n(Cc4c(CO)[nH]cc(C)c4=O)c3C[C@H]2CN1C(=O)c1ccccc1,0%,-6%
CCC1CCCCN1CC(=O)Nc1cc(C)nn1-c1nc(C)cc(C)n1 (centres undefined),?,?

(list continues)
Molecule,Vaccinia mCherry,Vaccinia Venus
O=C(O)c1ccccc1CSc1nc2ccccc2s1,i,-5%
CSCCC(NC(=O)COc1ccccc1)C(=O)Nc1ccc(C)cc1 (centres undefined),-21%,-15%
O=C(COC(=O)c1n[nH]c2ccccc12)Nc1ccccc1,-12%,-6%
O=c1[nH]c(=O)n(-c2ccc(Cl)cc2)c(O)c1C=NCCN1CCCCC1,-22%,1%
Cc1ccc(NC(=O)Nc2ccccc2OCc2cc(=O)n3ccccc3n2)c(Cl)c1,i,-10%
CCCSC(=S)NC1CCS(=O)(=O)C1 (centres undefined),-8%,-13%
CCc1ccc(N2CC(C(=O)Nc3ccc4c(c3)OCCO4)CC2=O)cc1 (centres undefined),-8%,-11%
O=C(COc1ccc(F)cc1)Nc1ccc2nc(SCC(=O)N3CCCC3)sc2c1,-11%,-10%

(listing goes on)
Molecule,Vaccinia mCherry,Vaccinia Venus
Cc1ccc(OCc2nnc(SCC(=O)N3CCc4ccccc43)n2C)cc1,-4%,-6%
CC(CNC(=O)C(C)(C)C)NC(=O)C(C)(C)C (centres undefined),i,-7%
COc1ccc2oc(=O)c(/C(C)=N/Nc3nc(-c4cc(C)ccc4C)cs3)cc2c1,i,-1%
CS(=O)(=O)c1sc2nc(-c3cccs3)cc(-c3ccccc3)c2c1N,-13%,-1%
O=C(NCc1ccc(Cl)cc1)C1CCC(CNc2c(N3CCCC3)c(=O)c2=O)CC1 (centres undefined),11%,10%
O=C(CN1CCCCC1)Nc1ccc(C(F)(F)F)cc1Cl,i,-18%
CCC(C)C(=O)OC1C[C@@]2(C)C(c3ccoc3)OC(=O)CC23OC2(C)OC34C(OC(=O)C(C)C)[C@]3(O)C(OC(=O)C5(C)OC5C)[C@]5(C)CC3(O)[C@](C)(C5CC(=O)OC)C14O2 (some centres undefined),i,-30%
COc1nc(=O)n(C2OC(CO)C(O)C2O)cc1C (centres undefined),-13%,8%

The results go on:
Molecule,Vaccinia mCherry,Vaccinia Venus
CCN(CC)CC(C)(C)C(=O)/C=C/c1ccc(/C=C/C(=O)C(C)(C)CN(CC)CC)cc1,?,11µM*
COc1ccccc1C(=O)NC(CCSC)C(=O)NNC(=O)c1csc(N2CCOCC2)n1 (centres undefined),-24%,-24%
Cc1ccc(S(=O)(=O)Cn2nnnc2C(C(C)C)N2CCSCC2)cc1 (centres undefined),i,-9%
CC(C)(O)c1[nH]c2ccc(C(F)(F)F)cc2c1C(C)(C)O,-3%,?
CC(Cc1ccccc1)N/C=C1\CC(=O)NC1=O (centres undefined),nt,16%
Cc1ccc(NS(=O)(=O)c2ccc3c(c2)N(C)C(=O)CC(=O)N3C)cc1Cl,-6%,-2%
Cc1cc(C)c(C)c(S(=O)(=O)N2CCCN(C)CC2)c1C,0%,-12%
O=C1CCC(=O)N1OCCOc1ccc(Cl)c2ccccc12,i,-2%

More structures.
Molecule,Vaccinia mCherry,Vaccinia Venus
Cc1ccc(C(=O)N/C(=C/c2ccco2)C(=O)N2CCOCC2)cc1,-2%,0%
N#C/C(=C\c1cn(CCOc2ccccc2F)c2ccccc12)C(=O)NCc1cccs1,-1%,-8%
Cc1ccc(Cl)cc1NC(=O)Cn1nc2c(cc1=O)CC(C)CC2 (centres undefined),-14%,-10%
COCCNC(=O)C1(C)CCCN(C(=O)c2cccc(C(F)(F)F)c2)C1 (centres undefined),22%,-4%
CCCCCC(=O)NC(=S)Nc1ccc(Br)cc1C,-19%,-6%
O=c1ccc2ccc(O[C@@H]3O[C@H](CO)[C@@H](O)[C@H](O)[C@H]3O)c(O)c2o1,-15%,-1%
NC(=O)C(c1ccc(Sc2ccccc2)nn1)c1ccc(Cl)cc1Cl (centres undefined),nt,-15%
CC1CCCCC1Nc1ncnc2sccc12 (centres undefined),i,0%
